# Screens (PubChem)
# D2 potentiator – Beta-Arrestin HTS for Positive Allosteric Modulators of the Human D2 Dopamine Receptor: Potentiators; potentiation, % (concentration not given with the values); 360,000 compounds, 0.23% hits; D(2) dopamine receptor (Homo sapiens), P14416; DiscoveRx D2 beta-arrestin cells, luminescence, 90 min; 100% = 57 uM dopamine signal; active = potentiation of 50% or more; inconclusive = 30% to 50%; inactive = 30% or less;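 further: tested on top of an EC20 dose of dopamine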
#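 PathHunter beta-arrestin assay in DiscoveRx D2 cells. Compounds were added with an EC20 of dopamine (50 nM final) for 90 min at 37 deg C. Luminescence was read 1 h after detection reagent, with 57 uM dopamine as the EC100 control.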
# gsp antag – qHTS for Antagonists of gsp, the Etiologic Mutation Responsible for Fibrous Dysplasia/McCune-Albright Syndrome: qHTS; gsp-mutant cells, cAMP HTRF, 30 min; control for the full effect not named in the record; Potency, µM (top dose mostly 76.9 µM), for the others: at the highest dose activity change, negative = inhibition, hits mostly inhibitors; 340,000 compounds, 0.4% hits; AID 624288, 2012; active = falling curve of any shape with a large fitted effect; inconclusive = falling curve, mostly with a smaller effect; inactive = flat or rising curve; cell line not stated here;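 further: intracellular cAMP measured with PDE inhibitor Ro 20-1724 present during compound exposure; potency means the concentration at half of the fitted maximal effect; on the % scale 0 is the no-effect control and ±100 the full control effect; nearly all actives have a fitted effect of over 65% in size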
#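 Measurement of cellular cAMP by homogeneous time-resolved fluorescence following a 30 min compound exposure at 37C. The PDE inhibitor […] was present throughout; the assay buffer was DPBS with 0.05% BSA and 0.005% Tween 20.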
# Menin-MLL FL inh – qHTS Assay for Inhibitors Targeting the Menin-MLL Interaction in MLL Related Leukemias: Competition With Fluorescein Labeled MLL-derived Peptide. Fluorescence polarization, fluorescein-MLL peptide displacement from menin. FP activity change, % at 61.4 µM. 290,000 tested, under 10 active. AID 1766, 2009; inconclusive = falling polarisation curve, or a change in total fluorescence; inactive = total fluorescence flat and polarisation flat or rising; no compound was filed as active; the % refers to the polarisation; negative = inhibition;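 further: % of control where 0% means no effect; inhibitors lower the polarisation; unlabelled MLL peptide was the positive control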
# TRPV1 potentiator – HTS Assay for Compounds that Act as Potentiators of the Vanilloid Receptor 1; Transient receptor potential cation channel subfamily V member 1 (Homo sapiens), Q8NER1; TRPV1-expressing cells, Fluo-8 calcium influx, capsaicin EC20 potentiation; host cell line not named in the record; control for the full effect not named in the record; potentiation, % at 8.33 µM; 320,000 compounds, 0.02% hits; active means potentiation above 80%; inconclusive means 30% to 80%; inactive means below 30%; further: 0% is about no effect
# Target sequence (Q8NER1 whole entry, looked up): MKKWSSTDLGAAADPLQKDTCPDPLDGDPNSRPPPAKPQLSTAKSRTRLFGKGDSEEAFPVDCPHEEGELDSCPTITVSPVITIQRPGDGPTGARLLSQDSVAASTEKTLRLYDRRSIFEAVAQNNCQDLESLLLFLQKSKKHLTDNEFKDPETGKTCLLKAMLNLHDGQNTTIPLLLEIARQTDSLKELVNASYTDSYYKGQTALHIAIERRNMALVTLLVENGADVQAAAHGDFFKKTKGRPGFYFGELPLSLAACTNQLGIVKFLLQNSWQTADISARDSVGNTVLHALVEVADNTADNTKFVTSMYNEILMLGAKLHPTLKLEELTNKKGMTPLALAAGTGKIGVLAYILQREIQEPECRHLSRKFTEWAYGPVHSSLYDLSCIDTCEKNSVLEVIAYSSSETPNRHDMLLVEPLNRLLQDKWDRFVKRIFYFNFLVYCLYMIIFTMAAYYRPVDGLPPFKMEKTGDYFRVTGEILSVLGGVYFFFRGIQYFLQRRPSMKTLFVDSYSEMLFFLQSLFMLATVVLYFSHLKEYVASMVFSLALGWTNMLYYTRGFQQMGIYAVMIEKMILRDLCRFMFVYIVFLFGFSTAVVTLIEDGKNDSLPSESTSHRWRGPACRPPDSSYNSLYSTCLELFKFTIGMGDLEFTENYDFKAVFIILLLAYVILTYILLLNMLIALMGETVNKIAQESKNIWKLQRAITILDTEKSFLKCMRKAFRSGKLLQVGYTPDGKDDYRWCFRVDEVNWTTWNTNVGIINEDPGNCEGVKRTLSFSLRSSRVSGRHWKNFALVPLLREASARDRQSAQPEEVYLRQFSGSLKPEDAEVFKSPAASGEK
#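 TRPV1-expressing cells were cultured overnight at 35.5C and loaded with Fluo-8 calcium dye for 40 to 90 min at room temperature. After a 10 s baseline, compound was added and calcium influx was read kinetically for 3 min (ex 480/em 520 nm).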
# gsp ag – qHTS for Agonist of gsp, the Etiologic Mutation Responsible for Fibrous Dysplasia/McCune-Albright Syndrome: qHTS; gsp mutant cells, cAMP HTRF, 30 min; control for the full effect not named in the record; 340,000 compounds, 0.13% hits; Potency, µM (top dose mostly 76.9 µM), for the others: at the top dose activation (cAMP increase), hits mostly activators; active = well fitted activation curve with a large enough effect; inconclusive = small, poorly fitted or top-dose-only effect, or another doubt; inactive = no such curve, though single readings can be large or run the other way; cell line not stated here;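 further: phosphodiesterase inhibitor Ro 20-1724 added with compounds to block cAMP breakdown; potency means the concentration at half of the fitted maximal effect; nearly all actives have a fitted effect of over 60% in size; about a fifth of the inactives were tested at one dose only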
#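 Cells in DMEM/10% FBS with G418 were pretreated with compounds in DMSO plus […] (300 uM stock) for 30 min at 37C. cAMP was measured by HTRF (cAMP-d2 plus anti-cAMP antibody-K) after 30 min at room temperature.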
# ClpP mod – qHTS Assay for Activators of ClpP. ATP-dependent Clp protease proteolytic subunit (Bacillus subtilis (strain 168)), P80244. purified B. subtilis ClpP, FRET peptide cleavage, 20 min. Potency, µM (doses to about 57.5 µM), for inactives: at the highest dose activity change, negative = active. 340,000 compounds, 1.9% hits. AID 651965, 2013; active = well fitted falling curve with a large enough effect; inconclusive = small, poorly fitted or top-dose-only effect; inactive = no such curve, though single readings can be large or run the other way; further: potency means the concentration at half of the fitted maximal effect; the source files actives as falling curves though it sought activators and does not explain the sign; nearly all actives have a fitted effect of over 65% in size; many hits overshoot -100%
# Target sequence (P80244 whole entry, looked up): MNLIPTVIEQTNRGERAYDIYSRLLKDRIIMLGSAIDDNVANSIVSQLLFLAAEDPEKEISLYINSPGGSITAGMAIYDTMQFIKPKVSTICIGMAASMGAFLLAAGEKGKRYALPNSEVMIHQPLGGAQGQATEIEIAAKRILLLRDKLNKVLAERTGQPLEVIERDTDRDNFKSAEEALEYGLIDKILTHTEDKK
#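 Purified B. subtilis ClpP, 10 microg/mL final in Tris/HCl pH8 with KCl, BSA, glycerol and Tween-20, cleaved an Abz/nitrotyrosine-quenched decapeptide. Fluorescence (ex 320, em 430) was read at 0 and 20 min at room temperature. Delta was normalized to 5.8 microM ADEP and DMSO/no-enzyme controls.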
# Sfp inh – qHTS Assay for Inhibitors of Bacillus subtilis Sfp phosphopantetheinyl transferase (PPTase) | Potency, µM, without a hit: max response, negative = inhibition, usual class: inhibitors | 310,000 compounds, 3.5% hits | Biochemical Sfp PPTase activity, qHTS; active means well fitted inhibition curve with a large enough effect; inconclusive means small, poorly fitted or top-dose-only effect, or another doubt; inactive means no such curve, though single readings can be large or run the other way;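 further: the enzyme is Sfp with the accession as filed and its product quenches rhodamine fluorescence; potency means the concentration at half of the fitted maximal effect; 0% = enzyme reaction without inhibitor and -100% = no enzyme wells; top concentration of the series not given in the record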
#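 Step 1, compound plus 15 nM Sfp-PPTase, 15 min, room temperature. Step 2, add rhodamine-CoA (5 uM) and BHQ-2-YbbR (12.5 uM). Step 3, read 525/598 nm fluorescence at 0 and 30 min.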
# Starred values were filed as active, the others as inactive; ? = inconclusive; . = no result given; & = joins results of further samples; [ ] = another dose, or the depositor's remark.
SMILES,D2 potentiator,gsp antag,Menin-MLL FL inh,TRPV1 potentiator,gsp ag,ClpP mod,Sfp inh
COc1ccc(CN(C)C(=O)C(Cc2ccccc2)NC(=O)c2ccccc2)c(OC)c1 (stereo not given),-16,-18%,.,9,-26%,-3.7%,.
COc1ccc(CCN2CN(S(=O)(=O)c3ccccc3)c3nc4ccccc4nc32)cc1,-9,0%,6.7,4,-1%,3.9%,16%
CC(C)CC(NC(=O)C1CCC(=O)N1)C(=O)NC(CC(C)C)C(=O)N1CCCC1C(N)=O (stereo not given),-28,13%,0.1,-14,-12%,0.9%,27%
CC(=O)N/N=C(\C)C1COc2ccccc2O1 (stereo not given),-3,1%,12,?,4%[15.4 µM],.,16%
CSc1ccccc1NC(=O)CN(Cc1ccc(Cl)cc1)S(C)(=O)=O,-13,-26%,2.9,-14,-4%,0.6%,20%
Cn1c(-c2ccncc2)nc2ccccc21,-23,4%,3.8,18,1%,-17%,24%
CN(CC(=O)Nc1ccccc1Br)C(=O)CNC(=O)c1ccc(Oc2ccccc2)cc1,-11,-3%,.,-10,16%,-2.4%,13%
Cn1c(=O)c([N+](=O)[O-])c(-n2ccnc2)c2ccccc21,-18,?,-2.4,23,-4%[15.4 µM],-1.1%,56µM*
O=C1C=C(c2ccccc2Oc2ccccc2)C[C@@H](c2ccc3c(c2)OCO3)C1,-7,-3%,.,3,.,-1.5%,.
COCCn1c(=NC(=O)c2ccccc2[N+](=O)[O-])sc2cc(S(C)(=O)=O)ccc21,74*,-3%,0.9,-26,-48%[inhibitor],2.1%,1%
CCn1c(SCC(=O)NCc2ccc3c(c2)OCO3)nc2c(c1=O)SCC2,-7,-5%,.,-17,3%[15.4 µM],1.2%,3%
CC(CC(=O)NCc1ccc(Cl)cc1)c1ccccc1 (stereo not given),-24,5%,1.7,-11,-51%[inhibitor],-3.3%,16%
Cc1cc(Br)ccc1NC(=O)CNC(=O)CN(C)Cc1nc2ccccc2c(=O)[nH]1,-6,0%,4.0,-10,-19%,0.2%,-14%
COc1ccc2[nH]c3c(c2c1)CCN1C(=O)N([C@@H](C)C(=O)NCc2c(F)cccc2Cl)C(=O)[C@]31C,-21,-29%,7.7,-7,.,-13%,14%
Cc1nc(N)nc(N)c1CCCc1ccc(Cl)c(Cl)c1,-4,10%,.,.,14%[15.4 µM],.,.
COC(=O)Nc1nc(C)c(C(=O)N(C)C)s1,9,11%,3.2,-6,16%,0.6%,10%
O=C(CCS(=O)(=O)c1ccccc1)NNC(=O)CSc1ccccc1F,1,-1%,.,.,7%,0.1%,.
O=S1(=O)N=C(N(Cc2cccs2)c2ccc(O)cc2)c2ccccc21,-14,-11%,6.6,8,-1%,-0.6%,4%
CC(C)[C@H](NC(=O)N1CCC(Cc2ccccc2)CC1)C(=O)O,-12,8%,-0.7,-2,?,-1.3%,2%
CCN(CC)S(=O)(=O)c1ccc(S(=O)(=O)N(Cc2ccccn2)Cc2ccco2)cc1,-10,?,2.9,17,-12%,-2.1%,?
Cc1ccc(C#N)c(SCc2nnc(-c3ccc(Cl)cc3)o2)n1,2,-13%,.,-5,-2%,-11%,-20%
Cc1ccc(N2CC(C(=O)Nc3ccc(C)c(S(=O)(=O)N(C)C)c3)CC2=O)cc1 (stereo not given),-15,-8%,0.8,-6,2%[15.4 µM],.,4%
Cc1ccc(N(C(=O)CNC(=O)c2ccco2)C(C(=O)NC2CCCCC2)c2cccnc2)cc1C (stereo not given),7,3%,1.6,2,-7%[15.4 µM],0.7%,5%
CCOC(=O)Cn1nc(C)c(NC(=O)COc2ccccc2[N+](=O)[O-])c1C,-1,17%,-1.3,21,-1%[15.4 µM],.,10%
c1ccc(Cn2nnnc2C(c2ccccn2)N2CCOCC2)cc1 (stereo not given),7,-4%,3.0,-2,-5%,-0.5%,19%
CC1CC(C)CN(C(=O)COC(=O)CNS(=O)(=O)/C=C/c2ccccc2)C1 (stereo not given),-6,-23%,-0.1,0,7%,4.8%,-9%
N#Cc1ccc(/C=N/NC(=O)CCc2ccc(S(=O)(=O)N3CCOCC3)cc2)cc1,-14,-3%,4.0,4,-15%,-1.6%,11%
CCCc1cc2c(=O)c(-c3ccc4c(c3)OCCO4)c(C)oc2cc1OS(C)(=O)=O,-15,?,16,7,-7%,-4.3%,8%
CSc1ccccc1NC(=O)C1C2CCC(C2)C1C(=O)O (stereo not given),-5,6%,-1.6,1,9%[15.4 µM],.,?
ClCc1csc(-c2ccc(Cl)cc2)n1,-10,3%,2.4,15,-25%,-2.4%,9%
CN(CCOc1ccccc1)C(=O)C1CCC(=O)N(CCN2CCOCC2)C1 (stereo not given),-2,4%,.,-19,16%,-10%,9%
COc1cc(OC)cc(C(=O)N[C@H](C(=O)OCC(=O)N2CCN(S(=O)(=O)c3ccc(C)cc3)CC2)C(C)C)c1,-3,-7%,.,.,16%,-1.4%,.
Cc1nc(N2CCOCC2)nc2c1CCCC2,-6,5%,-2.4,-20,-3%,28µM*,15%
Cc1ccc(C2C(C(=O)c3cc4ccccc4o3)=C(O)C(=O)N2CCN(C)C)o1 (stereo not given),-20,-2%,.,.,?,-8.3%,.
O=C(CSc1nnc(-c2cccs2)n1Cc1ccco1)c1ccc2c(c1)OCO2,-13,-10%,?,-7,27%,-3.9%,56µM*
Cc1cc(C)c(C(=O)/C=C/c2ccco2)c(=O)[nH]1,0,.,?,-7,-2%[15.4 µM],.,8.9µM*
CC#CCCCC(=O)Nc1ccccc1C(=O)O,-11,-14%,-0.7,3,-7%,?,6%
Cc1ccc(CSc2nc3ccncc3[nH]2)cc1,2,5%,-0.1,1,-3%,-2.2%,0%
Cc1ccc2c(c1)N(C(C)C(=O)NCc1cccs1)C(=O)CO2 (stereo not given),-10,2%,-5.0,-2,-14%,1.3%,13%
Cc1c(C=Nc2ccc(S(=O)(=O)CCO)cc2)c(O)[nH]c(=O)c1C#N,2,6%,.,.,?,.,.
CN(C)S(=O)(=O)c1cccc2c1C(=O)c1ccccc1C2=O,17,-13%,4.7,-3,?,-2.0%,1%
Clc1ccc(Oc2nnnn2-c2ccccc2)cc1,1,0%,-0.9,-1,0%,0.9%,1%
CCOC(=O)C(=N/O)/C(C)=N/NC(=O)C(=O)Nc1ccc(Cl)cc1,-26,?,5.4,-4,-19%,0.1%,-3%
Cc1cc(C(=O)COC(=O)COc2ccc(C#N)cc2)c(C)n1C1CC1,-6,-3%,.,1,9%[15.4 µM],0.8%,.
O=C(CCN1CCCCC1)Nc1cccc(Br)c1,-6,10%,-0.3,13,17%,-2.1%,6%
CCOC(=O)C1(Cc2ccccc2)CCN(Cc2cnc(N3CCOCC3)s2)CC1,-12,-7%,0.3,-12,18%[15.4 µM],.,1%
CCCC(=O)N1c2ccc(-c3csc(N)n3)cc2CC1C (stereo not given),-21,-1%,0.9,-4,19%,-10%,?
Cn1c(-c2ccccc2)cc2ccccc21,-4,-16%,-0.6,4,-2%[15.4 µM],1.5%,-3%
CCOC(=O)c1cccc(-n2c(C)nc3ccccc3c2=O)c1,-11,14%,-0.7,4,18%,-0.5%,20%
CCn1c(O)c(N=NC(=O)Cn2ccc(C(F)(F)F)n2)c2ccccc21,-24,5%,3.7,16,14%,-2.9%,3%
COC(C(=O)Nc1ccc(Br)cc1F)c1ccccc1 (stereo not given),8,5%,0.8,-18,-10%,1.2%,-26%
Cc1ccc2nc(NCc3ccco3)c(C=NCc3ccco3)c(=O)n2c1,-5,11%,-2.6,17,-73%[inhibitor],-2.9%,-2%
Cc1ccc(Cl)cc1NC(=O)CCS(=O)(=O)c1ccc2c(c1)n(C)c(=O)c(=O)n2C,-4,.,.,.,-39%[inhibitor],-3.6%&-15%,.
Cc1cc(C(F)(F)F)n(-c2nc(C(=O)Nc3cccnc3)cs2)n1,-14,2%,0.9,14,10%[15.4 µM],0.1%,12%
O=c1ccc2cc3c(-c4ccccc4)coc3cc2o1,-2,-11%,19,-2,1%,.,-3%
COC(=O)c1sccc1NC(=O)Nc1ccc(F)cc1,-5,-14%,.,10,-3%,-3.5%,6%
COC(=O)[C@@H]1CCCN1Cc1nc(Cc2ccc(OC)c(OC)c2)no1,-1,2%,-4.4,1,1%,.,5%
O=C(N/N=C/C(Br)=C/c1ccccc1)NC1CCCCC1,7,10%,0.8,1,-23%,.,?
Cc1cc(C)cc(OCC(=O)NCc2nc(-c3ccccc3)no2)c1,-1,-13%,-0.2,3,25%,0.8%,19%
Cc1cc(C(=O)COC(=O)c2cc(Cl)c(O)c(Cl)c2)c(C)n1C,0,?,.,7,?,1.6%,.
# (continued)
SMILES,D2 potentiator,gsp antag,Menin-MLL FL inh,TRPV1 potentiator,gsp ag,ClpP mod,Sfp inh
CCOc1ccc(C(=O)CCC(=O)Nc2ncccc2O)cc1,20,-4%,.,14,1%[15.4 µM],-5.5%,.
COc1cc2c(cc1OC)C(c1ccc(O)cc1)NCC2 (stereo not given),-5,6%,2.7,7,4%[15.4 µM],-0.8%,12%
Cc1cccc(N(CC(=O)NC(C)(C)C)C(=O)CNC(=O)c2cccs2)c1,-5,-13%,-4.5,-1,0%,.,23%
O=C(/C=C/c1ccc([N+](=O)[O-])cc1)N(c1ccccn1)C1CCCCC1,3,6%,-0.8,5,23%[15.4 µM],.,-1%
O=C(CN1CCN(c2nc(-c3ccccc3)cs2)CC1)NCc1ccc2c(c1)OCO2,-8,?,1.6,7,-55%[inhibitor],-4.2%,-10%
C[C@H](C(=O)CC(=O)OC(C)(C)C)[C@H](O)c1ccccc1,-3,11%,0.7&1.2,-2,.,0.5%,5%&7%
